# KCNQ2 block = KCNQ2 potassium channel inhibitors, primary screen, cell-based, CHO-K1, FluxOR thallium flux, B-score (AID 2156); Potassium voltage-gated channel subfamily KQT member 2 (Rattus norvegicus), O88943; 20 min; active compounds read low; only compounds with negative scores are shown here; some inactives read as strong as hits; B-score at 10 µM; 1.1% of 310,000 active;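 active means fluorescence ratio B-score at most minus 3 library SDs, with starting brightness B-score within 2 library SDs, cut at about -5.5 in these data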
# Target sequence (O88943 whole entry, looked up): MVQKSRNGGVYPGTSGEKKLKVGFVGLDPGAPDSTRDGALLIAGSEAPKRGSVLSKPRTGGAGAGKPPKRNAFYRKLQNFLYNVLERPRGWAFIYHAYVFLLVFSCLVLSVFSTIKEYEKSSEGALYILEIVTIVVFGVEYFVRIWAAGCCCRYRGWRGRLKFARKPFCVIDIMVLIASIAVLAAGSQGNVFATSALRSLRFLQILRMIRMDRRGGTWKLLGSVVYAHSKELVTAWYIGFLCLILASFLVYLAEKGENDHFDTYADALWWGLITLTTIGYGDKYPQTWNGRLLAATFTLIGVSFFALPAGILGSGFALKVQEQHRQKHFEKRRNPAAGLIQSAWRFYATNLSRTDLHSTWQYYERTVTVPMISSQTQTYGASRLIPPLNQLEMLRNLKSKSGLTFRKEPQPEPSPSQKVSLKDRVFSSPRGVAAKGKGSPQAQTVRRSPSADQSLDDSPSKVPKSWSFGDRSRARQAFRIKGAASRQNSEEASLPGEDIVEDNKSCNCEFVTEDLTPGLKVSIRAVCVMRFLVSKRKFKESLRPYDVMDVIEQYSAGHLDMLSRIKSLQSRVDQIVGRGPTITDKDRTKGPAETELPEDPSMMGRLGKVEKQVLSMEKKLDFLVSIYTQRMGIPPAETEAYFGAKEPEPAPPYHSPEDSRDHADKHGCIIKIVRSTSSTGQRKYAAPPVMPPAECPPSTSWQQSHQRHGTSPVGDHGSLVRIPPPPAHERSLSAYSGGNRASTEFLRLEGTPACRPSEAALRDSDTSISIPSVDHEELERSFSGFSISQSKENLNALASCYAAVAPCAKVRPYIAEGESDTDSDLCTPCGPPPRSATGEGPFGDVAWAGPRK
# KCNQ2 block baseline = further read-out of KCNQ2 block, marked with its call; B-score; measured here: initial fluorescence intensity artifact check;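 brightness before thallium and not channel activity; 0 = typical well and far values either way flag optical interference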
# * marks the source's active call; other numbers are inactive results; i = inactive. These rows are one share of the data; count on the stated rates, not on these rows.
# Every second line gives: KCNQ2 block, KCNQ2 block baseline
COc1ccc(CN(C)C(=O)c2oc3ccccc3c2CSC)cc1F
 : i, -0.51
CC(OC(=O)Cn1nnc2ccccc21)C(=O)NC1CCCC1 (stereo not drawn)
 : i, 0.15
COC(=O)CN1C(=O)C(O)(CC(=O)c2cccc(Br)c2)c2ccccc21 (stereo not drawn)
 : i, 0.14
COc1ccc(C(CC(=O)N2CCCC(C)C2)c2c(OC)cc(OC)c3ccc(=O)oc23)cc1 (stereo not drawn)
 : i, 0.01
C=CCn1c(SCC(=O)NC2CCCC2)nc2scc(-c3ccco3)c2c1=O
 : i, -0.09
COc1cccc(-c2nc(CS(=O)(=O)CC(=O)N3CCN(c4ccccn4)CC3)c(C)o2)c1
 : i, 0.77
COc1cccc(N(CC(=O)NC2CCCC2)C(=O)CCCC(=O)Nc2ccccn2)c1
 : i, -1.14
CC(=O)N1CCN(c2ccccc2NC(=O)c2ccc3ccccc3c2)CC1
 : i, 0.61
Cc1ccc(Cn2c(=N)n(CC(=O)c3ccccc3)c3ccccc32)cc1
 : i, 0.1
O=C(CSc1nnc([C@@H]2CCCN2)o1)c1ccc(Cl)cc1
 : i, 0.49
Cc1nc(NC(=O)COC(=O)c2cc3c(s2)CCC(C)C3)c(Cl)cc1Cl (stereo not drawn)
 : i, 0.69
COc1ccc(S(=O)(=O)N2CCCC2C(=O)Nc2ccc(O)cc2)cc1 (stereo not drawn)
 : i, 1.38
CCOc1ccc(C(=O)NC2CCN(S(C)(=O)=O)CC2)cc1
 : i, 1.08
Cc1[nH]ccc(=O)c1OCc1ccc(Cl)cc1
 : i, 0.29
O=C(CCc1nnc(C2CCCCC2)o1)N1CCN(c2ccccc2F)CC1
 : i, 0.67
COc1ccccc1-c1cc(C(=O)N/N=C/c2ccc(C)s2)c2ccccc2n1
 : i, -1.81
O=C1CC(c2ccc3c(c2)OCO3)c2cc3c(cc2N1)OCO3 (stereo not drawn)
 : i, 1.58
COc1ccccc1N(C(=O)c1snc(C(N)=O)c1N)C(C(=O)NCCC(C)C)c1ccco1 (stereo not drawn)
 : i, -0.19
O=C1[C@H]2CC3C=CC2(O3)[C@@H]2OCCCN12 (stereo partly drawn)
 : i, 0.2
COc1ccc(-c2cc3c(=O)n(CC(=O)NC4CCN(Cc5ccccc5)CC4)ncn3n2)cc1
 : i, -0.37
COc1ccc(CNC(=O)c2c[nH]c3ccccc3c2=O)cc1
 : i, 2.43
O=c1cc(CN2CCc3ccccc32)c2ccc(O)cc2o1
 : i, -0.43
Cc1cccc(C)c1NC(=O)C(=O)c1cn(C)c2ccccc12
 : i, 1.58
Cc1ccc(N(CC(=O)NC2CCCC2)C(=O)CNC(=O)c2cccs2)c(C)c1
 : i, 2.28
O=C(CC1C(=O)N(c2ccccc2)C(=O)N1Cc1ccco1)Nc1ccccc1 (stereo not drawn)
 : i, -0.46
CC(C)(C)c1ccc(S(=O)(=O)N2CCC(c3nc4ccc(Cl)cc4[nH]3)CC2)cc1
 : i, -0.55
CCCCc1cc(=O)oc2cc(C)cc(OC(C)C(=O)NC(Cc3c[nH]c4ccc(O)cc34)C(=O)O)c12 (stereo not drawn)
 : i, -0.95
Cc1[nH]c2ccccc2c1/C=C/C(=O)c1ccccc1
 : i, 0.65
Cc1ccc(-n2cc(-c3ccccc3)[nH]c2=O)cc1F
 : i, -0.53
Cc1ccnc(Nc2nc3ccccc3s2)n1
 : i, 0.07

# Some of the entries so far, as labelled records:
> COc1ccc(CNC(=O)c2c[nH]c3ccccc3c2=O)cc1
  KCNQ2 block = i | KCNQ2 block baseline = 2.43
> O=c1cc(CN2CCc3ccccc32)c2ccc(O)cc2o1
  KCNQ2 block = i | KCNQ2 block baseline = -0.43

# The listing picks up; the two compounds before the break are reprinted first.
# Every second line gives: KCNQ2 block, KCNQ2 block baseline
Cc1ccc(-n2cc(-c3ccccc3)[nH]c2=O)cc1F
 : i, -0.53
Cc1ccnc(Nc2nc3ccccc3s2)n1
 : i, 0.07
CC12CN3CC(C)(CN(C1)C3c1ccccc1Cl)C2O (stereo not drawn)
 : i, -0.67
O=C(NC(=S)Nc1cccc2ncccc12)c1cccs1
 : i, -1.66
C=CCNC(=O)/C(C#N)=C/c1c(C)nn(-c2ccccc2)c1Cl
 : i, 0.03
COc1ccc(-c2cc(C(=O)Nc3cc(C)on3)no2)cc1
 : i, -0.02
Cc1cc([N+](=O)[O-])nn1Cn1nc([N+](=O)[O-])cc1C
 : i, -0.54
O=C(CSc1nc(O)cc(=O)n1-c1ccc(Cl)c(Cl)c1)Nc1ccc(Cl)cc1Cl
 : i, -0.7
CCOC(=O)C(Sc1ncn[nH]1)c1ccccc1 (stereo not drawn)
 : i, 0.07
CC(C)(C)c1cc(NC(=O)c2ccc(OC3CCCC3)cc2)no1
 : i, 0.75
Cc1onc(-c2ccccc2Cl)c1C(=O)OCC(=O)Nc1cccc(S(=O)(=O)N(C)C)c1
 : i, -1.05
COC(=O)c1ccc(NC(=O)c2ccccc2-c2ccccc2C(=O)O)cc1
 : i, 0.02
CCOc1ccc(CN(C(=O)c2cc3ccccc3oc2=O)C2CCS(=O)(=O)C2)cc1 (stereo not drawn)
 : i, -0.38
COc1ccc(CC2(CO)CCN(C(=O)NCc3ccccc3)CC2)cc1
 : i, 0.86
COc1ccc(Nc2nc(Cl)nc(Nc3ccc(OC)cc3OC)n2)c(OC)c1
 : i, 1.07
COc1cc(-c2ncc3ccccn23)cc(OC)c1OC
 : i, -0.62
CCOc1ncccc1C(=O)N(CC)CC(=O)NCc1ccc(F)cc1
 : i, -0.04
CC(C)Cc1nn2c(=O)cc(CSCC(=O)Nc3ccccc3F)nc2s1
 : i, 1.66
C#CCSc1nnc(-c2ccc(O)cc2)o1
 : i, 1.63
CCCC(=O)Nc1cc(-c2cn3cccnc3n2)ccc1OC
 : i, -0.19
CCOC(=O)C1CCN(C(=O)c2oc3ccc4c(c3c2C)C(O)CC2(CCCCC2)O4)CC1 (stereo not drawn)
 : i, -1.07
Cc1sc(NC(=O)c2ccco2)c(CN2CCN(Cc3ccccc3)CC2)c1C
 : i, -0.12
COC(=O)C1=C(O)/C(=C\c2ccc(CNS(=O)(=O)c3ccc(Cl)cc3)o2)N=C1C
 : i, 0.51
COC(=O)c1ccc(OCc2nn[nH]n2)cc1
 : i, 0.53
CCOc1cc(C(=O)N2CCC(CC3CC(c4cccc(Br)c4)=NO3)(C(=O)NCC3CCCCC3)CC2)cc(OCC)c1OCC (stereo not drawn)
 : i, -1.88
FC(F)Oc1ccc(C2N=C(c3ccccc3)NO2)cc1 (stereo not drawn)
 : i, 0.01
COc1ccc(-n2ncc3c(=O)n(CC(C)=O)cnc32)cc1
 : i, 1.76
CC(CC(=O)O)CC(=O)Nc1cccc([N+](=O)[O-])c1 (stereo not drawn)
 : i, -0.28
Nc1nc(N2CCN(c3ccccc3)CC2)n[nH]1
 : i, 0.33
CCCCCc1ccc(-c2cn(CCCOCc3ccccc3)nn2)cc1
 : i, -0.98
COc1ccc([C@@H]2C[C@H]3CN(Cc4ccccc4OC)C(=O)[C@]34CCCN24)cc1C
 : i, -0.87
O=C(Cn1c(=O)sc2ccccc21)NCc1ccco1
 : i, 0.81

# Next entries.
# Every second line gives: KCNQ2 block, KCNQ2 block baseline
O=C(c1ccccc1)n1ccc2ccccc21
 : i, -0.49
CCCC(=O)Nc1cc2c3c(c1)CC(=O)N3CCC2
 : i, 0.01
CCN1C(=O)c2cccc3c(NC(=O)C(C)(C)C)ccc1c23
 : i, -0.06
O=C(c1ccco1)N1N=C(c2ccncc2)CC1(O)C(F)(F)F (stereo not drawn)
 : i, 1.47
O=C1c2ccccc2C(=O)N1CSc1nnc(Nc2ccccc2F)s1
 : i, -0.79
O=S(=O)(Nc1ccc(-c2cn3cccnc3n2)cc1)c1ccccc1
 : i, -1.94
CCN(CC)CCNc1nc(-c2ccc(OC(F)F)cc2)c(C)s1
 : i, -0.01
CS(=O)(=O)N1CCN(c2ccccc2NC(=O)Cc2ccccc2)CC1
 : i, 1.42
CC(CCc1ccccc1)NC(=O)/C=C/c1ccc(Cl)cc1 (stereo not drawn)
 : i, 1.2
COc1ccc(NS(=O)(=O)c2csc(C(=O)N3CCCC3)c2)c(OC)c1
 : i, 0.02
COc1ccc(C2N(C(C)=O)CCCN2S(=O)(=O)c2ccc(C)cc2)cc1 (stereo not drawn)
 : i, -1.1
Cc1ccc(Cn2c(CCNc3nc(-c4ccc(Cl)c([N+](=O)[O-])c4)cs3)nc3cc(C(=O)NCCCO)ccc32)cc1
 : i, 1.24
CN(C(=O)CSc1nc(-c2ccc(C(C)(C)C)cc2)c(C#N)c(=O)[nH]1)C1CCCCC1
 : i, -0.39
CC(OC(=O)C1CC=CCC1C(N)=O)C(Cl)=C(Cl)Cl (stereo not drawn)
 : i, -1.26
CN(CC(=O)O/N=C(\N)c1ccc([N+](=O)[O-])cc1)S(=O)(=O)c1ccccc1
 : i, 0.09
C=CCSc1nc2sc3c(c2c(=O)n1-c1ccc(C)cc1)CCN(C)C3
 : i, 3
CCCCOc1ccc(NS(=O)(=O)c2ccc(-n3cnnn3)cc2)cc1
 : i, 0.02
Cc1cccc(/C=N/NC(=O)C(C)Nc2cccc3ccccc23)n1 (stereo not drawn)
 : i, 3.48
Nc1ncc(-c2ccc([N+](=O)[O-])cc2)cn1
 : i, 2.16
C=CCN1C(=O)CSc2ccc(C(=O)OCC)cc21
 : i, 0.6
CCN(CC)c1ccc2cc(C=O)c(=O)oc2c1
 : i, 74.2
COCCCNC(=O)CN(c1cc(C(F)(F)F)ccc1Cl)S(C)(=O)=O
 : i, 0.49
CCCCC(=O)Nc1sc2c(c1C(=O)OCC)CCC(C=O)=C2Cl
 : i, 1.93
CSc1ccccc1NC(=O)COc1ccc(Cl)cc1
 : i, 0.2
O=C(O)c1cccc(NS(=O)(=O)/C=C/c2ccccc2)c1
 : i, -1.2
Cc1noc(/C=C/c2ccc(-c3ccccc3Cl)o2)c1[N+](=O)[O-]
 : i, 2.86
Cn1c(=O)c2nnn(/N=C(\c3ccccc3)C3CC3)c2n(C)c1=O
 : i, 0.71
Cc1ccc2oc(C(=O)N(Cc3ccc(N(C)C)cc3)CC3CCCO3)c(C)c2c1 (stereo not drawn)
 : i, 0.13
CCc1ccc(N2C(=O)/C(=C/c3cccs3)N(CC(=O)OC)C2=S)cc1
 : i, 1.42
CC(=O)N(/N=C/c1cccc(C)c1)c1nc(-c2ccc(Br)cc2)cs1
 : i, 1.44

# Some values from above:
# Under KCNQ2 block baseline, `CCCCOc1ccc(NS(=O)(=O)c2ccc(-n3cnnn3)cc2)cc1` is listed with 0.02
# Under KCNQ2 block baseline, `CC(CCc1ccccc1)NC(=O)/C=C/c1ccc(Cl)cc1` (stereo not drawn) is listed with 1.2
# Under KCNQ2 block baseline, `Cc1ccc2oc(C(=O)N(Cc3ccc(N(C)C)cc3)CC3CCCO3)c(C)c2c1` (stereo not drawn) is listed with 0.13
# Under KCNQ2 block baseline, `COCCCNC(=O)CN(c1cc(C(F)(F)F)ccc1Cl)S(C)(=O)=O` is listed with 0.49
# Under KCNQ2 block baseline, `CC(OC(=O)C1CC=CCC1C(N)=O)C(Cl)=C(Cl)Cl` (stereo not drawn) is listed with -1.26
# Under KCNQ2 block baseline, `O=C1c2ccccc2C(=O)N1CSc1nnc(Nc2ccccc2F)s1` is listed with -0.79
# Under KCNQ2 block baseline, `O=C(c1ccccc1)n1ccc2ccccc21` is listed with -0.49

# Continuation:
# Every second line gives: KCNQ2 block, KCNQ2 block baseline
Cc1noc(/C=C/N(C)C)c1S(=O)(=O)N1CCC(C(=O)O)CC1
 : i, -0.47
C=CCn1c(CCC(O)COCCC)n[nH]c1=S (stereo not drawn)
 : i, 1.09
Nn1c(-c2cccc([N+](=O)[O-])c2)nc2ccccc2c1=O
 : i, 0.57
O=C(O)CC1NC(=O)N(c2ccccc2)C1=O (stereo not drawn)
 : i, -0.67
COc1ccccc1C(=O)NCc1ccccn1
 : i, -1.62
Cc1cc(OC(=O)c2ccco2)c2c(C)cc(=O)oc2c1
 : i, 1.24
Cc1cccc(OCCC(=O)NCC(c2ccco2)N2CCCCC2)c1 (stereo not drawn)
 : i, -0.04
COc1ccc(-c2nc3ccccc3[nH]2)cc1
 : i, -1.79
COc1cccc(OCC(=O)NNC(=O)c2ccc(-c3ccccc3)cc2)c1
 : i, -0.17
CN(C)c1ccc(-c2nc3cc(N)ccc3o2)cc1
 : i, 2.18
CSc1ncccc1C(=O)OCc1c(F)cccc1Cl
 : i, 0.49
COc1ccc(C2/C(=C(/O)c3ccc4c(c3)CC(C)O4)C(=O)C(=O)N2CCN2CCOCC2)cc1 (stereo not drawn)
 : i, 0.79
COc1ccc(N(CC(=O)Nc2ccc(OC)c(OC)c2)S(=O)(=O)c2ccccc2)cc1Cl
 : i, 1.6
COc1ccc(CC(=O)NCC(c2ccc(OC)cc2)N(C)C)cc1 (stereo not drawn)
 : i, 0.02
COCCn1c(C)cc(C(=O)COC(=O)c2ccc[nH]c2=O)c1C
 : i, -0.3
C=CCc1ccc(OCCOCCNCCOC)c(OC)c1
 : i, 0.64
O=C(Nc1ccc2c(c1)OCO2)C1CCCN1C(=O)Nc1cccc(F)c1 (stereo not drawn)
 : i, 0.54
CCCSC1=NN2CCCC(=O)N=C2S1
 : i, -0.21
COc1ccc(C2C(C#N)=C(N)Oc3n[nH]c(C)c32)cc1Cn1cc([N+](=O)[O-])cn1 (stereo not drawn)
 : i, -0.81
CCOC(=O)N/N=C(\C)c1ccc(C)o1
 : i, 0.12
Cc1ccc(C(=O)Nc2ccc(Cl)cc2C)c(Cl)c1
 : i, 0.07
Cc1oc(-c2ccc(Cl)cc2)nc1CN1CCC(C(=O)NCc2cccs2)CC1
 : i, 1.32
Cc1[nH]n(-c2ccccc2)c(=O)c1/C=N/NC(=O)c1ccccc1F
 : i, -0.25
O=C(Nc1ccccc1)O/N=C/c1ccc(F)cc1
 : i, 0.1
O=C(O)c1ccccc1C(=O)N1CCN(c2cccc(Cl)c2)CC1
 : i, 1.56
COc1ccc(-c2ccc(-c3noc(C4CCCCC4)n3)c(OC)n2)cc1
 : i, 0.39
O=S(=O)(Nc1ccc(-c2csc(-c3ccccc3)n2)cc1)c1ccccc1
 : i, 1.31
Cc1ccc(N(CC(=O)N/N=C/c2ccco2)S(=O)(=O)c2ccccc2)cc1
 : i, -1.04

# Screening results from PubChem BioAssay.
